Bioassay records (PubChem BioAssay)
Cruzain noTriton – cruzain (T. cruzi) inhibition without detergent. P25779. purified cruzain, Z-FR-AMC fluorescence, no detergent. Potency, µM, inactives show max response, negative = inhibition, actives largely listed as inhibitors. 200,000 compounds, 2.3% hits. AID 1476;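 also: plate controls were enzyme without inhibitor for no effect and buffer without enzyme for full effect; nearly all actives have a fitted effect of over 40% in size; top concentration of the series not given in the record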
Target sequence (P25779 123-467 limits assumed): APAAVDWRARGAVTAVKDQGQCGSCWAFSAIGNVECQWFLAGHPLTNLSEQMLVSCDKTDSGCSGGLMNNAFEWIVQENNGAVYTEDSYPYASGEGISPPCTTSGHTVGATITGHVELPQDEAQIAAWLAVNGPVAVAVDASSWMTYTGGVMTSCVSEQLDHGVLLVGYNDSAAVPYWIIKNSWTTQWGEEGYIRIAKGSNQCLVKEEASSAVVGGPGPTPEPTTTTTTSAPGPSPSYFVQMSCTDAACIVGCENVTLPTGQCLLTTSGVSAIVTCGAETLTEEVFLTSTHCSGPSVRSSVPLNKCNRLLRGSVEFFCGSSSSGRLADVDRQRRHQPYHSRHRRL
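Purified cruzain at 1.5 nM, pre-incubated 15 min with compound at room temperature in 100 mM sodium acetate pH 5.5, 5 mM DTT, 0.00005% Triton X-100. Reaction started with 2 uM Z-FR-AMC; AMC fluorescence increase over 60 s gives rate.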
RE007 growth inh – less growth of the S. pombe RE007 Vpr strain. S. pombe RE007 Vpr strain, BacTiter-Glo ATP luminescence, 24 h; control for the full effect not named in the record. Potency, µM (series often up to 92.2 µM), without a hit: at the top dose activity change, negative = less growth. 360,000 compounds, 0.21% hits; active = well fitted falling curve with a large enough effect; inconclusive = small, poorly fitted or top-dose-only effect; inactive = no such curve, though single readings can be large or run the other way;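 also: % is scaled to controls: 0 for no effect and ±100 for the full control effect; nearly all actives have a fitted effect of over 50% in size; the assay follows cell death caused by Vpr and the record does not say whether a fall means rescue or toxicity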
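Fission yeast RE007 carrying one integrated HIV-1 vpr copy, seeded at OD 0.01 in PMG+AL medium with 23 nL pinned compound. Grown 24 h at 30 degrees; viability read by BacTiter-Glo luminescence after 5 min.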
Cruzain Triton – blocks cruzain activity in presence of Triton detergent | P25779 | purified cruzain, Z-FR-AMC fluorescence, 0.01% Triton | Potency, µM, without a hit: max response, negative = inhibition, most hits filed as inhibitors | 200,000 compounds, 0.43% hits;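 also: plate controls were neutral wells for no effect and buffer without enzyme for full effect; nearly all actives have a fitted effect of over 40% in size; top concentration of the series not given in the record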
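Read-out: AMC fluorescence (360 nm excitation, 450 nm emission), four reads over 2 min, first-to-third difference used. Conditions: cruzain 1.5 nM, Z-FR-AMC 2 uM, pH 5.5 acetate, 5 mM DTT, 0.01% Triton X-100.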
SARS PLP yeast – blocks SARS-CoV papain-like protease in a yeast assay. S. cerevisiae expressing SARS-CoV PLpro, growth rescue; control for the full effect not named in the record. Potency, µM (top dose mostly 32.9 µM), for inactives: at the highest dose activity, positive = growth rescue. 330,000 compounds, 0.19% hits. AID 485353; active means well fitted rising curve with a large enough effect; inconclusive means small, poorly fitted or top-dose-only effect; inactive means no such curve, though single readings can be large or run the other way; also: 0% is about no effect; nearly all actives have a fitted effect of over 55% in size; growth read by luminescence after 48 h
Lassa entry inh – inhibitors of Lassa virus binding or cell entry | 300,000 compounds, 1.2% hits | AID 540256 | Potency, µM (top dose mostly 37.9 µM), without a hit: at the highest dose activity change, negative = inhibition, hits mostly inhibitors | Lassa virus pseudotype entry inhibition, cell reporter; control for the full effect not named in the record; active means well fitted inhibition curve with a large enough effect; inconclusive means small, poorly fitted or top-dose-only effect, or effect the other way; inactive means flat fitted curve, though single readings scatter; tested in HEK293 cells; also: % is scaled to controls: 0 for no effect and ±100 for the full control effect; nearly all actives have a fitted effect of over 50% in size; luciferase read-out
NS1 inh – inhibitors of influenza NS1 protein function | AID 2326 | S. cerevisiae slowed by influenza A NS1, growth recovery by OD600 | 270,000 compounds, 0.4% hits | Potency, µM (doses to about 46.1 µM), for the others: at the top dose activity, positive = more growth; active means well fitted rising curve with a large enough effect; inconclusive means small, poorly fitted or top-dose-only effect; inactive means no such curve, though single readings can be large or run the other way; also: nearly all actives have a fitted effect of over 50% in size
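S. cerevisiae expressing influenza A NS1, grown in glucose, washed, then diluted 1:100 into pH 6.0 -URA galactose medium with 23 nl compound. Growth recovery read as OD600; NS1-free strain serves as control.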
2A StopGo – FMDV 2A StopGo reporter, luciferase signal; human cells with a luciferase reporter of 2A StopGo recoding; control for the full effect not named in the record; Potency, µM (highest dose often 57.9 µM), inactives show top-dose signal change, negative = less light; 410,000 compounds, 1.2% hits; AID 1159524; active = well fitted falling curve with a large enough effect; inconclusive = small, poorly fitted or top-dose-only effect; inactive = no such curve, though single readings can be large or run the other way; tested in HEK293T cells; also: % is scaled to controls: 0 for no effect and ±100 for the full control effect; nearly all actives have a fitted effect of over 45% in size; luciferase light after 4 h
MARV entry inh – Marburg virus entry inhibition; AID 540276; Potency, µM (top dose mostly 37.8 µM), for inactives: at the highest dose activity change, negative = inhibition, actives largely listed as inhibitors; 300,000 compounds, 1.8% hits; Marburg virus pseudotyped entry inhibition, cell reporter; control for the full effect not named in the record; about a third of the inactives were read at about 46 µM; active = well fitted inhibition curve with a large enough effect; inconclusive = small, poorly fitted or top-dose-only effect, or effect the other way; inactive = flat fitted curve, though single readings scatter; tested in HEK293 cells; about a fifth of its hits are not listed in these tables; also: % is scaled to controls: 0 for no effect and ±100 for the full control effect; luciferase read-out
* marks the source's active call; other numbers are inactive results; u = inconclusive; x = no result given; & = joins results of further samples; [ ] = remark or other dose. Unless noted, calls follow the shape of the dose curve; as a rule, active = well fitted curve in the direction sought with a large enough effect; inconclusive = small, poorly fitted or top-dose-only effect, or another doubt; inactive = no such curve, though single readings can be large; an effect the other way counts as inactive or inconclusive. Potency is read from the fitted curve at half-maximal effect.

SMILES	Cruzain noTriton	RE007 growth inh	Cruzain Triton	SARS PLP yeast	Lassa entry inh	NS1 inh	2A StopGo	MARV entry inh
CCN(CC)CCNC(=O)C(C)c1nn(CC)c(=O)c2ccccc12 (stereo not given)	23%	11%	0.3%	-6%	11%	1%	18%	-13%
Cc1cnc(NC(=O)CCCc2nc3ccccc3s2)s1	-6%	-2%	-3.6%	-5%	u	u	13%	u
CCCCN1CC(=O)N2Cc3[nH]c4ccccc4c3C[C@H]2C1=O	x	3%	x	1%	x	1%	-25%	x
CC1(C)CC(=O)C(/C=N/n2cnc3ccccc3c2=O)=C(O)C1	-2%	-12%	2.7%	13%	9%	3%	-1%	13%
COc1ccc(S(=O)(=O)N(C)C2CCS(=O)(=O)C2)cc1OC (stereo not given)	4%	1%	5.7%	1%	10%	7%	7%	-7%
COC(=O)c1sc(=S)n(-c2ccccc2OC)c1N	7%	0%	-1.5%	-2%	-9%	11%	1%	0%
Cc1cccc(OCC(O)Cn2c(NCc3cccnc3)nc3c2c(=O)[nH]c(=O)n3C)c1 (stereo not given)	18%	-7%	-0.6%	2%	12%	-3%	-12%	-6%[46.1 µM]
Cc1ccccc1C(=O)N1CCC(C(=O)Nc2ccc(S(=O)(=O)N3CCCC3)cc2)CC1	u	-6%	1.7%	4%	13%	-10%	-27%	-6%&-3%
Cc1ccsc1C(=O)Nc1cccc(S(=O)(=O)N(C)C)c1	8%	-1%	-4.2%	3%	12%	-1%	-18%	u
CC(C)[C@H](NC(=O)OCc1ccccc1)C(=O)OCC(=O)NC1(C#N)CCCC1	x	20%	x	0%	-19%	8%	7%	1%
CC(=O)Nc1ccc(NC(=O)CCC(=O)OCC(=O)c2ccc(F)cc2)cc1	x	-1%	x	-4%	x	5%	-6%	x
Cc1cc2cc3c(cc2nc1SCC(=O)N1CCN(C(=O)c2ccco2)CC1)OCO3	-6%	7%	-21%	6%	-30%	-47%	-15%	-24%
Cc1[nH]c2ccccc2c1C(=O)C(=O)NCCCn1ccnc1	x	-11%	x	1%	7%	x	-7%	3%
O=C(O)CCC(=O)Nc1ccccc1C(=O)NCc1ccco1	10%	12%	4.2%	4%	2%	5%	8%	8%
O=C(CCS(=O)(=O)c1cccc2nsnc12)N1CCN(C(=O)c2ccco2)CC1	-13%	8%	0.8%	0%	11%	5%	-12%	0%&0%
CCN(CC)C(=O)CSc1n[nH]c(=S)n1N	x	11%	x	0%	x	1%	-16%	x
COc1ccc(-n2ncc(C(=O)N3CCOCC3)c2C2CCN(C(=O)OC(C)(C)C)CC2)cc1	12%	x	-0.3%	x	u	x	7%	x
O=C(COc1ccccc1[N+](=O)[O-])N/N=C/c1ccncc1	x	-1%	x	5%	12%	x	-16%	3%[46.1 µM]
Nn1c(SCCOc2ccc(Cl)cc2)nnc1-c1cccnc1	x	-14%	x	0%	4%	x	-12%	-3%
Oc1ccc(-c2nc3ccccn3c2Nc2ccc3c(c2)OCCO3)cc1	-8%	x	-9.7%	x	17%[46.1 µM]	x	5%	u
Cc1cc(C)nc(SCc2nnc(SCC(=O)Nc3ccccc3C)n2Cc2ccco2)n1	12%	-4%	1.4%	1%	u	-7%	80%[activator]	5%&5%
CCOc1ccccc1NC(=O)Nc1ccc(Cl)cc1	-10%	x	-9.7%	-16%	u	u	-3%	u
CCCCOc1cccc(NC(=O)CSc2nnc(C)s2)c1	20%	x	-7.9%	x	-21%[46.1 µM]	x	-4%	x
Brc1cccc2sc(N3CCN(c4ccccc4)CC3)nc12	x	-15%	x	-8%	10%	x	-7%	-29%&-29%[46.1 µM]
O=C1C=CC(=O)N1c1cccc2cccnc12	x	7%	x	x	5%[46.1 µM]	x	-16%	28%[46.1 µM]
Cc1ccc(C)c(C2C(=O)c3ccccc3C2=O)c1	x	1%	x	-1%	21%[46.1 µM]	-59%	2%	-13%[46.1 µM]
CC(O)CNC(=O)c1ccc(-c2nn(C)c(=O)c3ccccc23)cc1 (stereo not given)	7%	-18%[3.69 µM]	3.4%	2%	-5%	2%	-7%	-11%
CS(=O)(=O)N1CCN(c2ccccc2NC(=O)c2ccc(Cl)cc2)CC1	-7%	11%	1.4%	-9%	-2%	-32%	-23%	-1%
CCNCCC(CCC(C)C)c1ccc2c(c1)OCO2 (stereo not given)	x	-2%	x	-1%	-7%[46.1 µM]	0%	-5%	8.9µM*
CC1CCCCN1C(=O)CSc1nnc(-c2ccco2)n1CC1CCCO1 (stereo not given)	-11%	-8%	-0.8%	-3%	-11%	-2%	4%	29%
O=C(NCCN1CCOCC1)c1cc(-c2ccccc2Cl)nc2ccccc12	x	-19%	x	-3%	0%	-1%	-12%	23%
CC(NC(=O)COc1ccccc1-c1ccccc1)c1ccccc1 (stereo not given)	-11%	0%	-8.6%	-28%	18µM*	-33%	u	u
Cc1ccc(-n2nnnc2SC(C(=O)c2c[nH]c3ccccc23)c2ccccc2)cc1 (stereo not given)	u	-9%	-0.3%	-23%	15%	27%	-19%	24%
CCCC(=O)c1ccc(N2CCN(C(=O)c3ccccc3)CC2)c(F)c1	6%	u	1.3%	-1%	-17%	-7%	-28%	u
CCOC(=O)c1c(C)oc2ccc(O)c(CN(C)C)c12	4%	11%	1.5%	-3%	-17%	4%	-6%	-4%[46.1 µM]
COc1cccc(C2C=C(c3cccs3)Nc3ncnn32)c1OC (stereo not given)	-12%	2%	-8.2%	-1%	-13%	-2%	-12%	-10%
O=C(NCCCc1ccccc1)Nc1cccc(Cl)c1	-2%	-6%	-4.9%	-86%	12%	-57%	-22%	17%
O=C(OCC(=O)C12CC3CC(CC(C3)C1)C2)c1ccccc1O	x	23%	x	-4%	7%[46.1 µM]	x	1%	14%[46.1 µM]
Cc1ccc(NS(=O)(=O)c2c(C)[nH]c(C)c2C(=O)N2CCCCC2)c(C)c1	x	-5%	x	-4%	9%[46.1 µM]	-10%	22%	25%[46.1 µM]
COc1ccccc1N1CCN(C(c2ccc(Cl)cc2)c2nnc(-c3cccc(F)c3)o2)CC1 (stereo not given)	8%	x	-5.7%	x	u	x	-22%	u

Exported as labelled records: entries from further up
CCCCOc1cccc(NC(=O)CSc2nnc(C)s2)c1
  Cruzain noTriton: 20%	RE007 growth inh: x	Cruzain Triton: -7.9%	SARS PLP yeast: x	Lassa entry inh: -21%[46.1 µM]	NS1 inh: x	2A StopGo: -4%	MARV entry inh: x

Brc1cccc2sc(N3CCN(c4ccccc4)CC3)nc12
  Cruzain noTriton: x	RE007 growth inh: -15%	Cruzain Triton: x	SARS PLP yeast: -8%	Lassa entry inh: 10%	NS1 inh: x	2A StopGo: -7%	MARV entry inh: -29%&-29%[46.1 µM]

O=C1C=CC(=O)N1c1cccc2cccnc12
  Cruzain noTriton: x	RE007 growth inh: 7%	Cruzain Triton: x	SARS PLP yeast: x	Lassa entry inh: 5%[46.1 µM]	NS1 inh: x	2A StopGo: -16%	MARV entry inh: 28%[46.1 µM]

Cc1ccc(C)c(C2C(=O)c3ccccc3C2=O)c1
  Cruzain noTriton: x	RE007 growth inh: 1%	Cruzain Triton: x	SARS PLP yeast: -1%	Lassa entry inh: 21%[46.1 µM]	NS1 inh: -59%	2A StopGo: 2%	MARV entry inh: -13%[46.1 µM]

Going on with the list.
SMILES	Cruzain noTriton	RE007 growth inh	Cruzain Triton	SARS PLP yeast	Lassa entry inh	NS1 inh	2A StopGo	MARV entry inh
Cc1ccccc1OCCC(=O)N1CCN(S(=O)(=O)c2ccc(Cl)cc2)CC1	x	12%	x	1%	u	x	-28%	u
COc1ccc(N2CCN(C(=O)c3cccc4nc(C)oc34)CC2)cc1	x	0%	x	0%	11%	x	-16%	9%[46.1 µM]
COc1ccc(C(=O)NC(=S)Nc2ccc3oc(=O)ccc3c2)cc1	u	1%	-0.1%	9%	u	6%	-18%	-18%
Cc1nc(NC(=O)CSc2nnc(C3CC3)n2C)sc1C(=O)N(C)C	x	-13%	x	u	x	10%	-9%	x
COc1ccc(/C=N/NC(=O)c2c(C)nc3ccccn23)cc1[N+](=O)[O-]	x	-10%	x	1%	0%	-5%	-3%	15%[46.1 µM]
O=C(Nc1cccc(-c2nc3ccccc3[nH]2)c1)c1ccc(C(=O)Nc2cccc(-c3nc4ccccc4[nH]3)c2)cc1	x	18%	x	2%	u	5%	63%[activator]	19%
C=CCn1c(SCn2nnc3ccccc3c2=O)nnc1-c1ccc(Br)cc1	-16%	0%	3.0%	-4%	29%	-45%	19%	11%
CCCC1=C(C(=O)OCC)C(c2cccs2)n2ncnc2N1 (stereo not given)	x	17%	x	-5%	x	0%	-19%	x
Cc1ccc(NC(=O)CN2C(=O)NC(C)(c3ccc(Cl)cc3)C2=O)cc1 (stereo not given)	x	10%	x	-8%	u	3%	-14%	-3%[46.1 µM]
COc1ccc(NC(=O)c2cc([N+](=O)[O-])ccc2N2CCCC2)cc1S(N)(=O)=O	x	13%	x	2%	6%	x	4%	-8%
c1ccc(CN2CCN(CCN3CCn4c3nc3ccccc34)CC2)cc1	-8%	-10%	2.9%	-2%	-4%	0%	-9%	-18%[46.1 µM]
COc1ccc(CCNC(=O)C2CC(O)CN2S(=O)(=O)c2ccc(Cl)cc2)cc1OC (stereo not given)	x	32%	x	4%	u	x	-3%	u
Cc1ccc(C2c3[nH]c4ccccc4c3CCN2C(=O)CSCc2ccc(F)cc2)cc1 (stereo not given)	u	x	4.8%	x	u	x	-22%	x
COc1cccc(C(=O)NCC(=O)N2CCC3(CC2)NCCc2[nH]cnc23)c1	x	18%	x	-2%	0%[46.1 µM]	-6%	-13%	10%[46.1 µM]
Cn1c(=O)n(CC(=O)O)c(=O)c2c1nc1n2CCS1	-9%	-2%&5%	0.5%	3%&0%	21%	-7%&3%	-1%&-16%	15%

An unsorted share of the library (roughly 4.7% active in at least one column).
